GIRK2 activ – opens human GIRK2 potassium channels | HEK293-GIRK2 thallium flux, Thallos fluorescence | calls only for hits at 25 µM | 0.05% of 63,000 active | AID 1259325;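 active means among the strongest 0.2% of first-round signals and kept after retests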;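 further: first round at about 10 µM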
Target sequence (P48051 whole entry, looked up): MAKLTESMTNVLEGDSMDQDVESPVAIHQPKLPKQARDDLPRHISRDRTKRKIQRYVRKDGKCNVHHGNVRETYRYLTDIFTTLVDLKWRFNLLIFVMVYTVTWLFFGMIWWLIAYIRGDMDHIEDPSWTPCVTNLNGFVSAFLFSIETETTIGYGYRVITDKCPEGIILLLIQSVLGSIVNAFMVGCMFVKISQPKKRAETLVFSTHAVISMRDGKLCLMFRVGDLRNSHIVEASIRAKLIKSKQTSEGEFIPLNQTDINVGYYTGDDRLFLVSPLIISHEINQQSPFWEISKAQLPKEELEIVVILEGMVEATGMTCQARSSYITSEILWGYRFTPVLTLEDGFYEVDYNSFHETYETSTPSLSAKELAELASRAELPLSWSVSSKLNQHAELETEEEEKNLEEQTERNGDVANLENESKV
Calls only. These rows are one share of the data, so the mix of outcomes need not match the whole.

For COc1ccccc1-n1ncc2c(C)nnc(SCC(=O)Nc3ccc4c(c3)OCCO4)c21 the results were GIRK2 activ inactive.
Screening C=CCn1c(=S)[nH]c2cc(C(=O)Nc3ccc(OCC)cc3)ccc2c1=O returned GIRK2 activ inactive.
For CCOC(=O)c1cn[nH]c1S(=O)(=O)Nc1cc(C)ccc1C the results were GIRK2 activ inactive.
Screening CN1CCN(c2nc3c(c(=O)[nH]c(=O)n3C)n2CCCOc2ccccc2)CC1 returned GIRK2 activ inactive.
O=C(NCCOc1ccc2nnc(-c3cccc(F)c3)n2n1)C1CC1 was read as GIRK2 activ inactive.
O=C(Cn1nnn(-c2ccc(NS(=O)(=O)C3CC3)cc2)c1=O)N1CCOCC1 was read as GIRK2 activ inactive.
`COC(=O)c1ccc(C(=O)NCC(c2cccc3ccccc23)N(C)C)cc1` (stereo not given) gave GIRK2 activ inactive.
COc1ccc(NC(=O)Cn2cc(C(=O)Nc3ccccc3)c(=O)c3ccc(C)nc32)cc1 was read as GIRK2 activ inactive.
For COc1ccc(Br)c(C(=O)N2CC(c3nc(-c4cccc(Cl)c4)no3)C2)c1 the results were GIRK2 activ inactive.
`COCCCn1c(-c2ccc(OC)cc2)nc2oc3cc(OC)ccc3c(=O)c2c1=O` gave GIRK2 activ inactive.
CCOCCn1c(=O)c2c(nc(-n3nc(C)cc3C)n2C(C)C)n(C)c1=O was read as GIRK2 activ inactive.
`COc1cc(C)c(Cl)cc1S(=O)(=O)NC(C)(C)C` gave GIRK2 activ inactive.
Screening O=C(Nc1ccc(Br)cc1F)C1CCCN(c2cc(-n3cccn3)ncn2)C1 (stereo not given) returned GIRK2 activ inactive.
For COc1ccc(NC(=O)c2cc(-c3ccc(F)cc3)nn2C)cc1N1CCCC1=O the results were GIRK2 activ inactive.
Screening CN(CC(=O)Nc1ccc2c(c1)Cc1ccccc1-2)C(=O)c1ccc(=O)[nH]c1 returned GIRK2 activ inactive.
Screening COc1ccc2c(=O)c(-c3ccc(OC)c(OC)c3)coc2c1 returned GIRK2 activ inactive.
`Cc1cccc(C)c1NC(=O)Cn1nc2c(-c3nc(-c4ccc(Cl)cc4)no3)cccn2c1=O` gave GIRK2 activ inactive.
For COc1cc(NC(=O)Cn2cccc(-c3nc(-c4ccc(C)cc4)no3)c2=O)cc(OC)c1 the results were GIRK2 activ inactive.
Screening Nc1cc(-c2ccccc2)nn(Cc2cccc(F)c2)c1=O returned GIRK2 activ inactive.
`CCc1cccc(OCC(O)Cn2c(NCc3ccco3)nc3c2c(=O)n(C)c(=O)n3C)c1` (stereo not given) gave GIRK2 activ inactive.
`Cc1nccn1CC1CCN(C(=O)C2=NN(c3ccccc3)C(=O)CC2)CC1` gave GIRK2 activ inactive.
O=C(c1ccc(Cn2ccnc2)cc1)N1CCN(CCn2cccn2)CC1 was read as GIRK2 activ inactive.
Screening COc1ccc2c(c1)c(CC(=O)O)cn2C(=O)c1ccc(Cl)cc1 returned GIRK2 activ inactive.
For COc1ccc(Cl)cc1NC(=O)Nc1nnc(-c2ccco2)o1 the results were GIRK2 activ inactive.
CCOC(=O)CCn1c(=O)c2c(nc3n(-c4cc(OC)ccc4OC)c(C)cn23)n(C)c1=O was read as GIRK2 activ inactive.
`O=C(Nc1sc2ccccc2c(=O)c1-c1ccc(Cl)cc1)c1ccco1` gave GIRK2 activ inactive.
For O=C(c1ccc(-n2cccc2)cc1)N1CCC(Oc2ccc(C(F)(F)F)cn2)CC1 the results were GIRK2 activ inactive.
Cn1nc(-c2cccs2)cc1C(=O)N1CCCC(c2nnc(-c3ccccc3F)s2)C1 (stereo not given) was read as GIRK2 activ inactive.
For COC(=O)C1=CO[C@@H](O[C@@H]2O[C@H](CO)[C@@H](O)[C@H](O)[C@H]2O)[C@@H]2[C@@H](CO)[C@@H](O)C(O)[C@H]12 (stereo not given in full) the results were GIRK2 activ inactive.
C=CCn1c(=O)c2c(nc3n(CCO)c(C)c(C)n23)n(C)c1=O was read as GIRK2 activ inactive.
Screening CC(C)(C)c1ccc(-c2noc(-c3nn(-c4ccccc4)ccc3=O)n2)cc1 returned GIRK2 activ inactive.
CCCCCNc1nc2c(c(=O)n(C)c(=O)n2C)n1CC was read as GIRK2 activ inactive.
O=C(c1cc(-c2ccccc2)on1)N1CCN(c2nc3ccc([N+](=O)[O-])cc3s2)CC1 was read as GIRK2 activ inactive.
Screening COc1ccc(-c2nc(Cn3c(C)cc(C)c(-c4nc(-c5ccccc5)no4)c3=O)c(C)o2)cc1 returned GIRK2 activ inactive.
`O=c1c(S(=O)(=O)c2ccccc2)cn(Cc2ccc(F)cc2)c2cc(N3CCCCC3)c(F)cc12` gave GIRK2 activ inactive.
`NC(=S)NC12CC3CC(CC(C3)C1)C2` gave GIRK2 activ inactive.
Screening O=C(Nc1cccc(F)c1)c1sccc1S(=O)(=O)N1CCN(c2ccccc2)CC1 returned GIRK2 activ inactive.
O=C(CCn1ccc(=O)[nH]c1=O)N1CCN(Cc2nc3ccccc3n2Cc2ccccc2)CC1 was read as GIRK2 activ inactive.
For Cc1nn(C(C)(C)C)c(OC(=O)CC2CCCCC2)c1S(=O)(=O)c1ccccc1 the results were GIRK2 activ inactive.
COC(=O)c1ccc(CSc2nc(C)cc(N3CCOCC3)n2)cc1 was read as GIRK2 activ inactive.
Screening CC#CCC(C)[C@@H](O)/C=C/[C@@H]1[C@H]2C/C(=C\CCCC(=O)O)C[C@H]2C[C@H]1O (stereo not given in full) returned GIRK2 activ inactive.
`CSc1cccc(NC(=O)Cn2nc(C)cc2C(=O)N2CCOCC2)c1` gave GIRK2 activ inactive.
`CN1CCN(NC(=O)C(=O)NCCc2ccccc2)CC1` gave GIRK2 activ inactive.
COC(=O)CC1=CC(SCC(=O)Nc2ccc(C(N)=O)cc2)=Nc2ccccc2N1 was read as GIRK2 activ inactive.
For O=C(c1ccc2nsnc2c1)N1CCC(CSCc2ccco2)CC1 the results were GIRK2 activ inactive.

12 compounds from above, sorted by SMILES length, lowest first:
Screening COc1ccc2c(=O)c(-c3ccc(OC)c(OC)c3)coc2c1 returned GIRK2 activ inactive.
COC(=O)c1ccc(CSc2nc(C)cc(N3CCOCC3)n2)cc1 was read as GIRK2 activ inactive.
O=C(c1ccc(Cn2ccnc2)cc1)N1CCN(CCn2cccn2)CC1 was read as GIRK2 activ inactive.
`O=C(Nc1sc2ccccc2c(=O)c1-c1ccc(Cl)cc1)c1ccco1` gave GIRK2 activ inactive.
Screening O=C(Nc1ccc(Br)cc1F)C1CCCN(c2cc(-n3cccn3)ncn2)C1 (stereo not given) returned GIRK2 activ inactive.
CCOCCn1c(=O)c2c(nc(-n3nc(C)cc3C)n2C(C)C)n(C)c1=O was read as GIRK2 activ inactive.
For COc1ccc(NC(=O)c2cc(-c3ccc(F)cc3)nn2C)cc1N1CCCC1=O the results were GIRK2 activ inactive.
For O=C(c1ccc(-n2cccc2)cc1)N1CCC(Oc2ccc(C(F)(F)F)cn2)CC1 the results were GIRK2 activ inactive.
Screening CN(CC(=O)Nc1ccc2c(c1)Cc1ccccc1-2)C(=O)c1ccc(=O)[nH]c1 returned GIRK2 activ inactive.
`CCc1cccc(OCC(O)Cn2c(NCc3ccco3)nc3c2c(=O)n(C)c(=O)n3C)c1` (stereo not given) gave GIRK2 activ inactive.
`O=c1c(S(=O)(=O)c2ccccc2)cn(Cc2ccc(F)cc2)c2cc(N3CCCCC3)c(F)cc12` gave GIRK2 activ inactive.
For COC(=O)C1=CO[C@@H](O[C@@H]2O[C@H](CO)[C@@H](O)[C@H](O)[C@H]2O)[C@@H]2[C@@H](CO)[C@@H](O)C(O)[C@H]12 (stereo not given in full) the results were GIRK2 activ inactive.

Further records follow.
Screening COc1cc(OC)cc(C(=O)Nc2sc3c(c2-c2nc4ccccc4s2)CCN(C(C)C)C3)c1 returned GIRK2 activ inactive.
`O=S(=O)(NCC(O)c1ccc2c(c1)CCO2)c1ccc(C(F)(F)F)cc1` (stereo not given) gave GIRK2 activ inactive.
`O=C(Nc1ccccc1C(F)(F)F)N1CCC(COCc2ccc(Cl)cc2)CC1` gave GIRK2 activ inactive.
CS(=O)(=O)N1CCc2nc(NC(=O)C3CC=CCC3)sc2C1 (stereo not given) was read as GIRK2 activ inactive.
CS(=O)(=O)c1ccc2nc(N(Cc3ccco3)C(=O)c3ccc(Br)s3)sc2c1 was read as GIRK2 activ inactive.
`CCOc1ccc(-c2csc3c(=O)n(CC(C)C)cnc23)cc1OCC` gave GIRK2 activ inactive.
Screening Cc1ccccc1NC(=O)c1nnn(-c2ccc(C(C)C)cc2)c1C returned GIRK2 activ inactive.
O=C(NCCn1nc(C2CC2)n(-c2ccccc2)c1=O)c1cc(-c2ccco2)[nH]n1 was read as GIRK2 activ inactive.
CC(C)(C)c1cc(NC(=O)c2ccsc2)on1 was read as GIRK2 activ inactive.
`O=S(=O)(NCCC(O)c1ccc2c(c1)OCO2)c1ccc(F)c(Cl)c1` (stereo not given) gave GIRK2 activ inactive.
Screening CC(=O)N1CCc2c(sc(NC(=O)c3ccn(C)n3)c2-c2nc3ccccc3s2)C1 returned GIRK2 activ inactive.
For COc1ccc(N2CC(C)Cn3c2nc2c3c(=O)n(CCc3ccccc3)c(=O)n2C)c(OC)c1 (stereo not given) the results were GIRK2 activ inactive.
For COc1ccc(S(=O)(=O)Nc2ccc3c(c2)CCCN3S(=O)(=O)c2ccccc2)c(OC)c1 the results were GIRK2 activ inactive.
For CCOC(=O)CN1CCN(c2nc3c(c(=O)[nH]c(=O)n3C)n2Cc2ccc(F)cc2)CC1 the results were GIRK2 activ inactive.
For CCOc1cccc2cc(C(=O)Nc3cccc(-c4cn5nc(OC)ccc5n4)c3)c(=O)oc12 the results were GIRK2 activ inactive.
Screening C=CCc1cccc2cc(C(=O)N3CCN(c4cccc(Cl)c4)CC3)c(=O)oc12 returned GIRK2 activ inactive.
`CCC(C(=O)NCCn1nc(C)cc1C)c1ccccc1` (stereo not given) gave GIRK2 activ inactive.
`CCN(c1ccccc1)S(=O)(=O)c1ccc(C(=O)Nc2ccc(S(N)(=O)=O)cc2)cc1` gave GIRK2 activ inactive.
COc1ccc(NC(=O)c2csc(Nc3ccc(OC(F)F)cc3)n2)c(OC)c1 was read as GIRK2 activ inactive.
NC(=O)C1(N2CCCCC2)CCN(C(=O)c2sc3ncccc3c2-n2cccc2)CC1 was read as GIRK2 activ inactive.
`CC1=NN(CCNc2ccccc2F)c2nc3c(c(=O)n(C)c(=O)n3C)n2C1` gave GIRK2 activ inactive.
For C=C1CC2[C@@]3(C)C=CC(=O)C(C)(C)C3=C(O)C(=O)[C@@]2(C)C2(C(=O)OC)C(=O)C(C)OC(=O)[C@@]12C (stereo not given in full) the results were GIRK2 activ inactive.
Screening Cc1ccn(-c2ccc(NCCNC(=O)COc3ccc(-n4cccn4)nn3)nn2)n1 returned GIRK2 activ inactive.
COc1ccc(Cl)cc1NC(=O)CN1CCN(Cc2nc(C(C)(C)C)cs2)CC1 was read as GIRK2 activ inactive.
`Cc1ccc(Cl)cc1NC(=O)CN1CCN(c2ccccc2F)CC1` gave GIRK2 activ inactive.
Screening O=C1NCCc2ccc(NS(=O)(=O)Cc3ccc(C(F)(F)F)cc3)cc21 returned GIRK2 activ inactive.
Screening Cc1ccc(C(O)CNC(=O)C(=O)Nc2ccc3c(c2)N(S(C)(=O)=O)CCC3)o1 (stereo not given) returned GIRK2 activ inactive.
For O=C(c1cc2ccccc2c(=O)s1)N1CCc2ccccc2C1 the results were GIRK2 activ inactive.
For COc1ccc(OC)c(COCC(O)CN2CCN(Cc3ccccc3)CC2)c1 (stereo not given) the results were GIRK2 activ inactive.
Screening CC(=O)N1CCc2c(sc(NC(=O)c3ccc(OC(C)C)cc3)c2-c2nc3ccccc3s2)C1 returned GIRK2 activ inactive.
Screening CCOC(=O)c1oc2cc(OS(C)(=O)=O)ccc2c(=O)c1-c1ccc(Br)cc1 returned GIRK2 activ inactive.
CC(C)(C)c1ccc(OCC(=O)N2CCC3(CC2)OCCCO3)cc1 was read as GIRK2 activ inactive.
Screening CC(C)C(=O)Nc1ccc(C(=O)NCCNS(=O)(=O)c2cc(F)ccc2F)cc1 returned GIRK2 activ inactive.
Screening CN(c1ccsc1C(=O)N1CCOCC1)S(=O)(=O)c1ccc(C(C)(C)C)cc1 returned GIRK2 activ inactive.
Cn1nc(CNC(=O)CCSc2ccccc2)cc1-c1ccco1 was read as GIRK2 activ inactive.
Cc1nc(-c2cccc(NC(=O)c3ccc(OCc4nc(C5CC5)cs4)cc3)c2)cs1 was read as GIRK2 activ inactive.
Screening CC(Oc1ccccc1)C(=O)NC1=NCCS1 (stereo not given) returned GIRK2 activ inactive.
`Cc1cccc(-c2csc3c(=O)[nH]c(N4CCC(C(=O)NC(C)c5ccc(F)cc5)CC4)nc23)c1` (stereo not given) gave GIRK2 activ inactive.
Screening CC1CCCCN1C(=O)c1cccnc1-c1nc2ccccc2s1 (stereo not given) returned GIRK2 activ inactive.
Screening O=C(NCC1CCN(C(=O)c2cccnc2)CC1)Nc1ccccc1 returned GIRK2 activ inactive.
Screening O=C(Nc1ccccc1Cl)C1CCCN(c2ccc(-c3cccs3)nn2)C1 (stereo not given) returned GIRK2 activ inactive.
For O=c1cc(-c2ccccc2)nc(SCc2nc(-c3ccc(Cl)c(F)c3)no2)[nH]1 the results were GIRK2 activ inactive.
Cc1ccc(S(=O)(=O)c2nc(-c3ccccc3)oc2SCC(=O)N2CCCC2)cc1 was read as GIRK2 activ inactive.
`O=C(COc1ccc(Cl)cc1)Nc1ccc(Cl)c2ncsc12` gave GIRK2 activ inactive.
O=C(C1CCCC1)N1CCN(c2nc(N3CCCC3)nc(-n3ccnc3)n2)CC1 was read as GIRK2 activ inactive.
For CC(O)(CCc1ccccc1)CNC(=O)C1CCN(S(C)(=O)=O)CC1 (stereo not given) the results were GIRK2 activ inactive.
`COc1ccccc1NC(=O)CCc1nc2sc3c(c2c(=O)[nH]1)CCCCC3` gave GIRK2 activ inactive.
Screening COc1cccc(-c2noc(Cn3nc4ccc(-c5ccc(C)c(C)c5)nn4c3=O)n2)c1OC returned GIRK2 activ inactive.
`COc1cccc(NC(=O)NCC(c2cn(C)c3ccccc23)N(C)C)c1OC` (stereo not given) gave GIRK2 activ inactive.
`COc1ccc(NC(=O)CN2CCc3[nH]c4c(C)c(Cl)ccc4c(=O)c3C2)c(OC)c1` gave GIRK2 activ inactive.
`CN(C)S(=O)(=O)N1CCN(CC(=O)Nc2ccc(Cl)c(Cl)c2)CC1` gave GIRK2 activ inactive.
Screening O=C(c1ccc2c(=O)nc3c(-c4ccc(F)cc4)n[nH]n3c2c1)N1CCN(c2ccccn2)CC1 returned GIRK2 activ inactive.
